High-throughput results from PubChem.
Vif A3G: HIV-1 Vif–A3G interaction blockers – biochemical, TR-FRET, GST-Vif 1-94, biotin-A3G peptide, dose response retest, primary screen (AID 1117319). inhibition, %, or IC50 in µM where a hit was titrated. TR-FRET GST-Vif / biotin-A3G peptide binding; higher % means a stronger effect; test concentration not given here; strong numbers were not always called active. hit rate 0.57% among 260,000;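 active means above the screen mean plus three standard deviations and confirmed in dose response; inconclusive means results disagree or hit not tested in dose response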;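 further: Vif residues 1-94 fused to GST binding biotinylated APOBEC3G peptide 110-148; 0% = full assay without inhibitor and 100% = GST in place of GST-Vif; retest series ran down from 100 µM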
MLL AF4-AF9 inh: MLL-AF4/AF9 protein interaction inhibition. AlphaScreen, biotin-AF4 peptide binding to FLAG-AF9. inhibition, % at 10 µM. hit rate 0.47% among 350,000;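 active means every replicate reaching a set inhibition limit, whatever the replicate mean, cut at about 25% in these data; inconclusive means mean inhibition reaches that limit but some replicates miss it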;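 further: 0% = plate neutral control median and 100% = total signal loss; the record names both 10 and 1 µM as test concentration; the first replicate is given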
Target sequence (P42568 whole entry, looked up): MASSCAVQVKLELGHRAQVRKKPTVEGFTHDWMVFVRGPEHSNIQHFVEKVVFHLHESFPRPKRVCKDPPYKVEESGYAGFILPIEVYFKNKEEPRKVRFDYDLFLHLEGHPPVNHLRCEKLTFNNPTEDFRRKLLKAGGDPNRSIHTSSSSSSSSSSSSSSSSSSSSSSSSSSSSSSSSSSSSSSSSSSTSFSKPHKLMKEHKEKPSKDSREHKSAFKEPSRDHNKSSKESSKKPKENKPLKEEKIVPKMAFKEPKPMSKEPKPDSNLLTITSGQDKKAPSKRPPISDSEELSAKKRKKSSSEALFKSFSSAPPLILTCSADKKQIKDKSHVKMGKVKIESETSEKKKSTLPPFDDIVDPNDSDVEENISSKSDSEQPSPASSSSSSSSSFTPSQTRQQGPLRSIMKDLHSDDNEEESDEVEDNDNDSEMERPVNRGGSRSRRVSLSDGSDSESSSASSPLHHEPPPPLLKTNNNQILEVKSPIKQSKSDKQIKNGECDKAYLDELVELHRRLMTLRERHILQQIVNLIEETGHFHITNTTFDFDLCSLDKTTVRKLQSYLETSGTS
Ecoli growth: inhibitors of Escherichia coli growth. AID 1053175. hit rate 0.21% among 330,000. OD600, 23 h; stronger effect = lower value. OD600 absorbance (test concentration not listed);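 active means OD600 absorbance below the run mean of sample wells minus 3.6 SD, in any replicate, cut at about 0.56 in these data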;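 further: stock transfer was 300 nL into about 60 µL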
FGF22 binding: FGF22 (human) thermal shift binding. calls only at 9.99 µM. hit rate 1.5% among 340,000. Q9HCT0. recombinant FGF22 thermal shift, SYPRO orange fluorescence; percent of sucrose octasulfate shift, DMSO zero;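 active means melting point raised past a set limit in the mean and every replicate; inconclusive means no clear call; three in four hits are not shown here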
Target sequence (Q9HCT0 whole entry, looked up): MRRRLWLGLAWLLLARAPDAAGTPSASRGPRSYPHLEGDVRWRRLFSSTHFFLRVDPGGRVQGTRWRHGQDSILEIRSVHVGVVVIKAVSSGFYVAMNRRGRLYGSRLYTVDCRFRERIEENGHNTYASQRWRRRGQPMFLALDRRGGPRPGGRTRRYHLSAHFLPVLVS
rRNA inh HTS: selective bacterial rRNA inhibition in E. coli | E. coli WT GFP vs humanized-ribosome RFP mutants, fluorescence, 24 h; stronger effect = lower value; DMSO median 0, no signal -100 | GFP signal change (wild-type ribosome), % (no concentration beside the values) | hit rate 1.6% among 350,000;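 active means significant combined selectivity score with lowered wild-type GFP, culture density cut under 30%, mutant RFP and density less affected; inactive means any of these conditions unmet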; further: one replicate is shown; some compounds called inactive have numbers as strong as hits
ALR H2O2 inh: human ALR oxidase inhibition via reduced H2O2 | P55789 | hit rate 3.8% among 290,000 | inhibition, % (no concentration beside the values) | purified ALR, DTT oxidation, H2O2 HRP-luminol luminescence;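 active means mean and each replicate at 75% or more; inconclusive means only one of the two met; inactive means neither met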;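 further: stock transfer was 7.5 nL into about 7.5 µL; 0% = neutral wells and 100% = wells with inactivated enzyme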
Target sequence (P55789 whole entry, looked up): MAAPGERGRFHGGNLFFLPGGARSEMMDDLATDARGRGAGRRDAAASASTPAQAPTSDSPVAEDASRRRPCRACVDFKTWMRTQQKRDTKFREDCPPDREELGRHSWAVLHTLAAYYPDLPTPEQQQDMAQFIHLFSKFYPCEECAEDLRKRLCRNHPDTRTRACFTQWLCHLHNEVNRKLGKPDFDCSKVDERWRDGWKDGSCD
HNF4A DNA FP: change in binding of human HNF4 alpha to DNA; HNF4a-FITC DNA binding, fluorescence polarization, 1 h; activity change, % at 10 µM; hit rate 0.3% among 360,000; in the data active means activity change above about 30%, passing the limit was not always enough;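 further: controls were the assay level and a saturating level of protein; the project sought stronger binding though the title names inhibitors; some compounds called inactive have numbers as strong as hits; positive values seem to mean higher polarization but the record does not say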
rRNA inh HTS OD600: second read-out of rRNA inh HTS, no call of its own (marks repeat the call); OD600 change, %; measured here: OD600 growth;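 optical density of the mix in the first replicate; 0 = DMSO median and -100 = no signal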
rRNA inh HTS RFP: further read-out of rRNA inh HTS, marked with its call; RFP signal change, %; measured here: RFP humanized mutant strains;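 first replicate; 0 = DMSO median and -100 = no signal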
Starred values were filed as active, the others as inactive; i = inactive; ? = inconclusive; / = no result given; + = active, no number; & = joins results of further samples. Only part of the results is shown (hit frequency here may not be typical).

Results follow in this order: Vif A3G	MLL AF4-AF9 inh	Ecoli growth	FGF22 binding	rRNA inh HTS	rRNA inh HTS OD600	rRNA inh HTS RFP	ALR H2O2 inh	HNF4A DNA FP
COc1ccc(NC(=O)N(C)C[C@H]2OCCCC[C@@H](C)Oc3ccc(NC(=O)Nc4ccc(C(F)(F)F)cc4)cc3C(=O)N([C@H](C)CO)C[C@@H]2C)cc1
  /	-1.3	/	i	8	6	0.8	/	/
O=S(=O)(c1ccc(F)cc1)N1CCCCN2[C@@H](CO)[C@H](c3ccc(-c4cncnc4)cc3)[C@@H]2C1
  /	-4.7	/	i	-3	-4	-2.5	/	/
CCOc1cc(C2NC(=O)N(C)C(C)=C2C(=O)OC)cc(Br)c1O (configuration not stated)
  18%	/	0.69	/	/	/	/	-7	-0.6
CCN1CCN(CC(O)COCC2COc3ccccc3O2)CC1 (configuration not stated)
  -9%	-0.3	0.71	i	8	3	-11	-5	-5.7
COc1ccc(-c2cn(CC[C@@H]3CC[C@H](NC(=O)Cc4ccccn4)[C@@H](CO)O3)nn2)cc1
  /	0.3&3.4	/	i	0&8	1&7	-1.6&1.9	/	5.3
O=C(Nc1cc(F)ccc1F)N1CCCCN2[C@H](C1)[C@@H](c1ccc(-c3cncnc3)cc1)[C@@H]2CO
  /	-8.3	/	i	-8	6	1.0	/	/
CC(=O)SC(C)CC(=O)Nc1ccccc1 (configuration not stated)
  -5%	/	0.76	/	/	/	/	-2	-0.2
COc1ccc(NC(=O)c2ccccc2NS(=O)(=O)c2ccc(C)cc2)c([N+](=O)[O-])c1
  25%	/	/	/	/	/	/	-5	1.1
COc1ccc(-c2csc(NC(=O)CSc3nc(SC)ns3)n2)cc1
  8%	0.3	0.65	i	-12	-17	7.7	-12	-4.1
Cc1ccc(CN(Cc2cc3cccc(C)c3[nH]c2=O)C(=O)N(C)C)cc1
  -7%	/	0.7	/	/	/	/	/	-2.2
Cc1ccc(NC(=O)CCc2c(C)nn(-c3ccc(N4CCCCC4)nn3)c2C)cc1F
  /	2.1	0.64	i	-1	-27	-12	-5	-1.4
O=C(c1ccco1)N1CCN(C(=O)c2ccc(CS(=O)c3ccc(Cl)cc3)o2)CC1 (configuration not stated)
  -8%	-6.0	0.65	i	-2	-5	-2.2	-13	-2.3
CSc1nc(N)n2nc(C)cc2n1
  /	-1.0	/	i	9	12	-2.7	/	3.6
COc1cc(C)nc(N2CCCC(C(=O)NCC(C)C)C2)n1 (configuration not stated)
  -4%	/	0.71	/	/	/	/	/	1.6
COc1ccc(NC(=O)c2cc(S(=O)(=O)N3CCOCC3)cn2C)c(OC)c1
  /	-5.9	0.72	i	2	2	-1.4	0	3.5
Cc1ccc(NC(=O)c2sc3ncn(CC(=O)N4CCN(c5ccccn5)CC4)c(=O)c3c2C)cc1Cl
  /	1.2	0.72	i	12	20	5.3	-6	-1.1
COc1ccc(NC(=O)[C@@H]2CC=C[C@@H]3CCN(Cc4ccccc4)C(=O)[C@@H]32)cc1
  /	1.2	/	i	-4	-4	-5.9	-7	5.6
CCC(=O)N(C)C[C@@H]1Oc2cc(-c3ccc(OC)cc3)ccc2S(=O)(=O)N([C@@H](C)CO)C[C@H]1C
  /	-3.5	/	i	-2	-8	-0.6	/	/
CC(C)(C)c1ccc(S(=O)(=O)NCCN2CCOCC2)cc1
  -9%	-1.4	/	i	/	/	/	/	0.0
CC(C)(C)OC(=O)C[C@@H]1C/C=C\C[C@@H](CC(=O)N(CCO)Cc2ccccc2)C(=O)N2CCC[C@H]2COC1=O
  0%	0.4	0.71	i	2	0	-1.1	/	-1.9
CCCN(C)C[C@@H]1OCCCC[C@@H](C)Oc2ccc(NS(=O)(=O)c3c(C)noc3C)cc2C(=O)N([C@@H](C)CO)C[C@@H]1C
  /	-0.1	/	i	3	5	-1.0	/	/
C[C@H](NC(=O)c1ncn2c1C(=O)N[C@@H](C)C2)C(=O)OC(C)(C)C
  /	-1.2	/	i	3	11	-0.5	/	-4.3
O=C(NC1CCCCC1)C(c1ccc(C(F)(F)F)cc1)n1c(=O)c(-c2cc3ccccc3[nH]2)nc2ccccc21 (configuration not stated)
  /	-53	/	i	18	4	3.0	/	-37
CCOC(=O)N1CCN(S(=O)(=O)c2cc(OCC(=O)NC3CCCCC3)c(C)cc2Cl)CC1
  4%	/	0.7	/	/	/	/	-53	-0.5
CCc1sc(C(=O)Nc2cccnc2)cc1Br
  /	-0.5	0.64	i	-17	-39	7.8	0	1.4
COc1ccc(S(=O)(=O)N2CCC(C(=O)NCCC(=O)Nc3cccc(OC)c3)CC2)cc1
  /	-0.8	0.72	i	-2	0	7.0	0	1.9
Cc1ccccc1S(=O)(=O)NNC(=O)C(=O)NNc1ccccn1
  ?	/	0.72	/	/	/	/	99*	-0.7
O=C(Nc1ccccc1F)N1C[C@H]2[C@@H](c3ccccc31)[C@H](CO)N2C(=O)c1ccccc1F
  /	-6.6	/	i	5	10	-3.8	/	/
Cc1nn(C)c(C)c1NS(=O)(=O)c1cccc(Br)c1
  -7%	-1.6	0.64	i	8	9	-1.0	6	1.3
COc1cc(C(=O)NNC(=O)c2cccn2C)cc(OC)c1OC
  8%	1.9	0.7	i	7	21	-0.8	-3	0.3
O=C(NCCO)c1cccc(Cl)c1
  ?	/	0.7	/	/	/	/	-15	-0.3
Cc1cccn2c(=O)c(C(=O)NC3CC(C)CC(C)(C)C3)c(O)nc12 (configuration not stated)
  /	-2.2	0.61	i	11	15	0.7	0	-2.7
OC[C@H]1[C@@H](c2ccc(-c3ccccc3F)cc2)[C@H]2CN(Cc3cccnc3)CCCCN21
  /	1.5	/	i	6	10	-0.4	/	/
CCOc1cccc(N2C(=O)CC(NNC(=O)c3ccc(Br)o3)C2=O)c1 (configuration not stated)
  /	-5.3	0.66	i	-3	3	0.1	11	9.6
COc1cc(/C=C/C=C2/CC/C(=C/C=C/c3ccc(O)c(OC)c3)C2=O)ccc1O
  4µM*	4.5	/	i	-8	5	-2.6	/	108
COCc1ccc(CN2CCC(n3nccc3NC(=O)CCOc3ccccc3)CC2)o1
  -4%	-1.2	0.62	i	9	13	2.3	-4	-3.6
Cc1cc(NC(=O)NC(=O)c2ccccc2NC(=O)CN(C)C)ccc1Oc1ncc(Br)cn1
  -2%	-62	/	i	-5	-13	6.7	/	-0.3
O=C(C[C@@H]1CC[C@@H]2[C@H](COC[C@@H](O)CN2CC2CCOCC2)O1)NCC1CC1
  /	-4.4	/	i	0	-2	-2.4	/	/
CCOC(=O)N1CCN(c2c(N3CCN(c4ccccc4OC)CC3)c(=O)c2=O)CC1
  /	2.2	0.73	i	-3	-6	0.3	-4	-2.8
O=C(COC(=O)c1cccc(Cl)c1)Nc1ccc2[nH]c(=O)[nH]c2c1
  -1%	-36	0.66	i	6	7	-2.6	-1	-1.2
Cc1ccsc1C(=O)NNC(=O)C1CC=CCC1C(=O)O (configuration not stated)
  /	-4.7	0.69	i	11	6	-7.4	17	-0.1
C[C@H](CO)N1C[C@H](C)[C@H](CN(C)Cc2ccncc2)Oc2cc(-c3ccccc3F)ccc2S1(=O)=O
  1%	4.6&2.5&4.7	/	i	-21&-13	-45&-23	-6.5&-0.4	/	0.6
Cc1ccc2cc(/C=N/NC(=O)c3ccccc3[N+](=O)[O-])c(Cl)nc2c1
  /	2.5	/	i	5	10	-0.9	5	0.1
CC1CC(C)CN(CC(=O)NNC(=O)COc2ccc(Cl)cc2)C1 (configuration not stated)
  -4%	0.9	0.66	i	/	/	/	/	3.4
CC(C)N(Cc1nc(-c2ccccc2)no1)C(=O)CSc1ccccc1
  -2%	/	0.67	/	/	/	/	16	2.3
O=C1CC(c2ccc(Cl)cc2)CC(O)=C1C=NCCO (configuration not stated)
  -3%	-1.9	0.67	i	-3	-6	7.0	-16	-3.6
O=C(Nc1ccccc1C(=O)N1CCCCCC1)c1cccc([N+](=O)[O-])c1
  4%	1.1	0.68	i	12	11	0.3	1	4.1
CCN(Cc1ccc2c(c1)OCCO2)C(=O)CN1C(=O)NC2(CCc3ccccc32)C1=O (configuration not stated)
  -12%	-1.6	0.71	i	-1	-3	-0.1	18	4.3
CC(C)c1nnc(SCC(=O)N2CCN(C(=O)c3ccco3)CC2)n1N
  5%	-2.5	0.67	i	16	20	1.1	-5	1.9
COc1ccc(C(C(=O)NC2CCCC2)N(C(=O)c2snc(-c3ccc(F)cc3)c2N)c2ccc(F)cc2)cc1 (configuration not stated)
  -3%	/	0.77	/	/	/	/	3	2.9

Single records, from the list above. Order of values: Vif A3G, MLL AF4-AF9 inh, Ecoli growth, FGF22 binding, rRNA inh HTS, rRNA inh HTS OD600, rRNA inh HTS RFP, ALR H2O2 inh, HNF4A DNA FP
Profile of C[C@H](CO)N1C[C@H](C)[C@H](CN(C)Cc2ccncc2)Oc2cc(-c3ccccc3F)ccc2S1(=O)=O → 1%, 4.6&2.5&4.7, /, i, -21&-13, -45&-23, -6.5&-0.4, /, 0.6
Profile of Cc1ccsc1C(=O)NNC(=O)C1CC=CCC1C(=O)O (configuration not stated) → /, -4.7, 0.69, i, 11, 6, -7.4, 17, -0.1

(next part)
Results follow in this order: Vif A3G	MLL AF4-AF9 inh	Ecoli growth	FGF22 binding	rRNA inh HTS	rRNA inh HTS OD600	rRNA inh HTS RFP	ALR H2O2 inh	HNF4A DNA FP
Nc1nnc(CC(=O)N/N=C\c2cc([N+](=O)[O-])ccc2O)s1
  32%	6.5	/	i	-11	4	-0.8	7	-1.2
O=C(Nc1ccc(F)cc1)C(Sc1nc2ccccc2[nH]1)c1ccccc1 (configuration not stated)
  ?	-4.3	0.71	i	4	-10	0.6	-10	-0.8
Cc1cccc(NC(=O)N2CCCC2C(=O)NCc2ccccc2)c1 (configuration not stated)
  9%	3.1	0.69	i	4	0	-1.9	0	-3.4
CCOc1ccccc1OCCNC1CCCC1
  -6%	/	0.69	/	/	/	/	-4	1.1
COc1ccc(-c2ccc([C@H]3[C@H](CO)N4CCCCN(C(=O)c5ccc6c(c5)OCO6)C[C@@H]34)cc2)cc1
  /	1.1	/	+	-16	-59	11	/	/
C[C@H]1CN([C@@H](C)CO)C(=O)Cc2cc(NC(=O)Nc3ccc4c(c3)OCO4)ccc2O[C@@H]1CN(C)Cc1ccncc1
  /	3.8	/	i	-2	-6	0.3	/	/
C/C(=N/Nc1ncc(Br)cn1)c1ccc(Br)cc1
  /	4.5	/	i	0	9	-2.6	1	-1.5
COCc1cc(C)nc(SCC(=O)Nc2cccc(C)c2)c1C#N
  7%	/	0.76	/	/	/	/	1	2.5
O=C(CSc1nc(-c2ccccc2)cc(=O)[nH]1)Nc1ccccc1F
  -11%	0.6	0.71	i	3	-9	0.9	4	-0.5
Cc1ccc(NC(=O)CC2C(=O)OCC3CCCCN32)cc1Cl (configuration not stated)
  16%	1.9	0.71	i	12	8	1.8	4	0.8
CCC(OC(=O)C(NC(=O)c1ccccc1)c1ccccc1)C(=O)Nc1cc(C)on1 (configuration not stated)
  17%	0.8	0.7	i	-1	-1	-9.4	0	-3.9
C[C@H](CO)N1C[C@H](C)[C@@H](CN(C)S(=O)(=O)c2cccc(F)c2)Oc2ncc(C#CC3CCCC3)cc2C1=O
  /	2.1	/	i	-2	2	4.9	/	/
CC(C)(C)C(=O)Nc1sc2c(c1-c1nc3ccccc3[nH]1)CCCC2
  3%	5.8	0.65	i	9	2	4.6	4	2.9
COc1cc(C(=O)Nc2ccc(NC(=O)c3cccc(Cl)c3)nc2)cc(OC)c1OC
  /	2.8	0.64	i	5	12	0.0	/	1.2
